ClpP mod: qHTS Assay for Activators of ClpP | ATP-dependent Clp protease proteolytic subunit (Bacillus subtilis (strain 168)), P80244 | purified B. subtilis ClpP, FRET peptide cleavage, 20 min | Potency, µM (series often up to 57.5 µM), for inactives: at the highest dose activity change, negative = active | actives 1.9% (n = 340,000); active = well fitted falling curve with a large enough effect; inconclusive = small, poorly fitted or top-dose-only effect; inactive = no such curve, though single readings can be large or run the other way; note: potency is the fitted concentration of half-maximal effect; the source files actives as falling curves though it sought activators and does not explain the sign; nearly all actives have a fitted effect of over 65% in size; many hits overshoot -100%
Target sequence (P80244 whole entry, looked up): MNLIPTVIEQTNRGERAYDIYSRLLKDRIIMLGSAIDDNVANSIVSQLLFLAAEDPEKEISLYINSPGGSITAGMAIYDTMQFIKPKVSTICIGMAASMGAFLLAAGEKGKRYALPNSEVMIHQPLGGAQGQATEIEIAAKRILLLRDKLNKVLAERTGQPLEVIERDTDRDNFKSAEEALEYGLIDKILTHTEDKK
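ClpP 10 microg/mL final, pH 8 Tris/KCl buffer with BSA, glycerol, Tween-20; compound pinned in; FRET-FV substrate; RT 20 min; Ex320/Em430; ΔFRET vs ADEP 5.8 microM, DMSO, no enzyme.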
Sfp inh: blocks B. subtilis Sfp PPTase activity; AID 1490; actives 3.5% (n = 310,000); Potency, µM, inactives show max response, negative = inhibition, usual class: inhibitors; Biochemical Sfp PPTase activity, qHTS; Q9F4F7; active = well fitted inhibition curve with a large enough effect; inconclusive = small, poorly fitted or top-dose-only effect, or another doubt; inactive = no such curve, though single readings can be large or run the other way;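 note: the enzyme is Sfp with the accession as filed and its product quenches rhodamine fluorescence; potency is the fitted concentration of half-maximal effect; 0% = enzyme reaction without inhibitor and -100% = no enzyme wells; top concentration of the series not given in the record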
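Step 1, compound plus 15 nM Sfp-PPTase, 15 min, room temperature. Step 2, add rhodamine-CoA (5 uM) and BHQ-2-YbbR (12.5 uM). Step 3, read 525/598 nm fluorescence at 0 and 30 min.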
TRPML1 inh: inhibitors of human TRPML1 channel; Q9GZU1; TRPML1-inducible cells, Ca2+ dye fluorescence, FDSS; active compounds read low; inhibition of EC80 agonist-evoked calcium signal; activity change, negative = inhibition, % (no concentration beside the values); actives 0.02% (n = 390,000); AID 624415; in the data active means activity change below about -50%; inconclusive means about -30% to -50%; inactive means above about -30%;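 note: stimulus is agonist 54-4 at its EC80 concentration; % is set by controls: 0 for no effect and ±100 for the full control effect; compound concentration not given in the record; the text of the record puts the active cut at -80%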
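Calcium fluorescence in TRPML1-DL cells induced overnight with Tet: a 110 s read after compound pin addition, then a 110 s antagonist read after challenge with 54-4 at 4 uM final (EC80).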
TRPV1 PAM: potentiators of human vanilloid receptor 1 (TRPV1) | AID 540277 | potentiation, % at 8.33 µM | Q8NER1 | actives 0.02% (n = 320,000) | TRPV1-expressing cells, Fluo-8 calcium influx, capsaicin EC20 potentiation; host cell line not named in the record; control for the full effect not named in the record; active means potentiation above 80%; inconclusive means 30% to 80%; inactive means below 30%; note: 0% is about no effect
Target sequence (Q8NER1 whole entry, looked up): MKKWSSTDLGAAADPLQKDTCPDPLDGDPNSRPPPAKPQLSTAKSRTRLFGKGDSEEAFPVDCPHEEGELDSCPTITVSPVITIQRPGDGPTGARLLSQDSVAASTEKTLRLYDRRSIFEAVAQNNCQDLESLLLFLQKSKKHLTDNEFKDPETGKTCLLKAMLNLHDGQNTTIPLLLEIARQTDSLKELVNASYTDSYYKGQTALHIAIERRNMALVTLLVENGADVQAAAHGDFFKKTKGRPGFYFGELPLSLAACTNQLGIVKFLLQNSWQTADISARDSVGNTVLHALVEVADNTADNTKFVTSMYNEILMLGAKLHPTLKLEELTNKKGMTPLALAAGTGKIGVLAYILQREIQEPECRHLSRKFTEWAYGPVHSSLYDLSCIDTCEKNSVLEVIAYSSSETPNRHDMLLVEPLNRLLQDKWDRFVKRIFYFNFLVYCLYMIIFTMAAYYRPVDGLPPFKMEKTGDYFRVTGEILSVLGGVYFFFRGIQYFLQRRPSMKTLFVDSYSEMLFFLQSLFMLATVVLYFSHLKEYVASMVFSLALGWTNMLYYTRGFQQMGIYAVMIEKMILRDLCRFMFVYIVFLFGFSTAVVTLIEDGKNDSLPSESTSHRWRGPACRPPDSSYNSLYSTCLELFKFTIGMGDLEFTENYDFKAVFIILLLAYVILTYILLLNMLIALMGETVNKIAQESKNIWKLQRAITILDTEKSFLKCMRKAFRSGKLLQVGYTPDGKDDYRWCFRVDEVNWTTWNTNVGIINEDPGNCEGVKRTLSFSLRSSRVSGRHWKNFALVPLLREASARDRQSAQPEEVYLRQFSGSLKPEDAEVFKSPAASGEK
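Fluo-8 calcium influx in TRPV1-expressing cells, kinetic read (ex 480/em 520 nm). Compound added and read 3 min for agonist activity, followed by capsaicin at EC20 final and 2 min further read for enhancement.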
TRPML1 agonist: activates the human TRPML1 channel; AID 624414; activation, % (no concentration beside the values); actives 0.12% (n = 410,000); TRPML1-expressing cells, Ca2+ dye fluorescence, FDSS; host cell line not named in the record; reference of the full effect not given here; in the data active = activation above about 50%; inconclusive = about 30% to 50%; inactive = below about 30%; note: 0% is about no effect; the text of the record puts the active cut at 80%
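Tetracycline-induced TRPML1-DL cells are seeded and incubated overnight before loading with a no-wash Ca2+ dye and quencher. Agonist activity is taken from the 110 s fluorescence read following compound pin-transfer on an FDSS, before EC80 54-4 challenge.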
Menin MLL FP FL: inhibitors of human menin-MLL interaction, wild-type MLL peptide; Fluorescence polarization, fluorescein-MLL peptide displacement from menin; FP activity change, % at 61.4 µM; 290,000 tested, under 10 active; AID 1766; inconclusive = falling polarisation curve, or a change in total fluorescence; inactive = total fluorescence flat and polarisation flat or rising; no compound was filed as active; the % refers to the polarisation; negative = inhibition;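 note: % of control where 0% means no effect; inhibitors lower the polarisation; unlabelled MLL peptide was the positive control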
PINK1 expr mod: PINK1 expression modulation; PINK1 immunofluorescence, high-content cytometry, 24 h; Potency, µM (titrated, usually from 76.6 µM), inactives show at the top dose activation (PINK1 increase), usual class: activators; actives 0.2% (n = 410,000); AID 624263; active = well fitted activation curve with a large enough effect; inconclusive = small, poorly fitted or top-dose-only effect; inactive = flat fitted curve, though single readings scatter; cell line not stated here;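 note: potency is the fitted concentration of half-maximal effect; % of control where 0% means no effect; nearly all actives have a fitted effect of over 65% in size; a mitochondrial uncoupler was the plate control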
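Fluorescence from anti-PINK1 antibody, together with nuclear and cell stains, was scanned on a laser-scanning cytometer. Before staining, stable-line cells were incubated 24 hours with compounds at 5 concentrations; primary antibody 12 h at 10 degrees C.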
An asterisk follows results filed as active; ? = inconclusive; nt = not tested or not shown; & = joins results of further samples; [ ] = remark or other dose.

Sample of the layout, two compounds:
SMILES	ClpP mod	Sfp inh	TRPML1 inh	TRPV1 PAM	TRPML1 agonist	Menin MLL FP FL	PINK1 expr mod
O=C(NC1CCCCC1)C(c1ccccn1)N(C(=O)c1csnn1)c1ccccc1 (stereo not given)	nt	14%	-11	5	0.1	-0.1	-2.8%
CCCOc1ccc(CCC(=O)O)cc1	0.5%	1%	16	6	-0.5	0.7	-1.4%

Results, from the start:
SMILES	ClpP mod	Sfp inh	TRPML1 inh	TRPV1 PAM	TRPML1 agonist	Menin MLL FP FL	PINK1 expr mod
O=C(NC1CCCCC1)C(c1ccccn1)N(C(=O)c1csnn1)c1ccccc1 (stereo not given)	nt	14%	-11	5	0.1	-0.1	-2.8%
CCCOc1ccc(CCC(=O)O)cc1	0.5%	1%	16	6	-0.5	0.7	-1.4%
CCc1nn(CC(=O)N2CCN(c3cccc(C)c3C)CC2)c(=O)c2cc3occc3n12	-0.6%	nt	?	nt	-0.5	nt	1.9%
Cc1ccc(-c2nc3c(Cl)cc(C(F)(F)F)cn3c2Cc2ccsc2)cc1	-7.5%	nt	nt	nt	0.2	nt	0.8%
CSc1ccc(NC(=O)Nc2ccc(C(=O)NCC(=O)O)cc2)cc1	-0.4%	-13%	1	-5	-0.1	-0.3	2.6%
Cc1c(N2C(=O)SC(CC(=O)O)C2=O)c(=O)n(-c2ccccc2)n1C (stereo not given)	-2.7%	-3%	-6	-2	1.4	-2.0	0.5%
COc1ccc(-n2c(COc3ccc(Cl)cc3)nnc2SCc2ccc(C#N)cc2)cc1	-1.9%	8%	25	-5	4.7	4.1	13%[38.3 µM]
Cc1ccc(-c2csc(NC(=O)c3ccc(S(=O)(=O)N4CCc5ccccc54)cc3)n2)cc1	-5.9%	-16%	6	7	-0.5	nt	1.5%
COc1ccc(NC(=O)c2ccc(S(=O)(=O)N3CCCC3)cc2)cc1OC	1.8%	nt	-1	-10	-0.8	nt	-1.5%
Cc1cccc(-n2c(N)cc(=O)nc2SCC(=O)Nc2ccccc2)c1	-2.2%	6%	73	17	-1.5	1.8	-0.2%
CS(=O)(=O)N(CC(=O)Nc1cccc(Cl)c1Cl)c1ccccc1	0.9%	-1%	-4	9	-0.3	3.3	1.2%
CCOc1ccc(NC(=O)COC(=O)c2ccc(S(=O)(=O)N3CCOCC3)cc2)cc1	0.7%	nt	-8	nt	-1.0	nt	0.8%
O=C(NCc1cccc(Cl)c1)C1Cc2c(-c3ccc(Cl)cc3)ccnc2O1 (stereo not given)	-5.9%	nt	nt	nt	0.3	nt	3.4%
O=C(Nc1cc(S(=O)(=O)N2CCOCC2)ccc1N1CCCC1)C1CC1	nt	-11%	-13	-4	-0.2	3.9	-1.1%
CC(=O)N1CCC(C(=O)NCCOc2ccc(C)cc2)CC1	nt	15%	31	-1	-0.4	3.0	0.4%
c1ccc(CNc2ncnc3c2ncn3Cc2ccccc2)cc1	1.5%	nt	nt	nt	-0.7	nt	-0.2%
Cc1cc(C(=O)N/N=C/c2cccc([N+](=O)[O-])c2)c2ccccc2n1	-2.5%	10%	-16	7	1.0	6.0	?
Cc1cc(C)n(C(=O)CCCn2cc([N+](=O)[O-])cn2)n1	-6.1%	4%	20	4	-0.7	-1.6	0.8%
Cc1c(C=O)c2ccccc2n1CC(=O)NC(C)c1ccccc1 (stereo not given)	nt	14%	8	?	-0.6	0.7	1.8%
O=[N+]([O-])/C(C(Cl)=C(Cl)Cl)=C(\Sc1ccccc1)N1CCCCC1	-4.1%	-15%	4	-2	0.0	5.4	5.8%
CC(Oc1ccc(Br)cc1)C(=O)NCc1ccccn1 (stereo not given)	nt	22%	-10	4	-0.6	-1.3	-0.2%
CCc1ccc(CNC(=O)C2CCCN(c3nn4cc(-c5ccc(F)cc5)nc4s3)C2)cc1 (stereo not given)	1.3%	nt	3	nt	0.8	nt	2.7%
Cc1cccc(NC(=O)NC(C)CCc2ccccc2)c1 (stereo not given)	nt	8%	8	-8	1.8	3.2	0.1%
Cc1cc(=O)c2c(N(C)C)cccc2[nH]1	3.9%	nt	-5	nt	-0.9	nt	-1.0%
Cc1ccc(C(=O)N2CCc3ccccc32)cc1	-1.4%	0%	0	-5	-0.2	0.2	nt
Cc1ccc(Cl)cc1-n1c(=O)c2sc3ccccc3c2n(CC(=O)NC2CCCCC2)c1=O	4.1%	nt	-11	nt	0.1	nt	3.2%
CNC(=O)c1c(NC(=O)c2ccc(S(=O)(=O)N3CCCCC3C)cc2)sc2c1CCC2 (stereo not given)	-2.2%	nt	0	nt	0.2	nt	-2.6%
O=C(O)c1ccc(-n2cc(C(=O)c3ccccc3O)cn2)cc1	-3.7%	16%	nt	-11	nt	4.6	1.1%
COc1ccc(-c2cn3c(n2)sc2cc(C(=O)Nc4ccc(C)c(C)c4)ccc23)cc1	-3.8%	nt	22	nt	1.8	nt	0.6%
CC(C)N(C(=O)CSc1nc2ccccc2n1Cc1ccccc1F)C(C)C	-0.3%	-9%	38	-7	6.5	1.1	-0.7%
O=C(O)/C(=C/c1ccc(Cl)c([N+](=O)[O-])c1)c1ccc(S(=O)(=O)N2CCCCC2)s1	nt	nt	-10	nt	-0.7	nt	2.9%
C=CCC[C@H](Cc1ccc(F)cc1)C(=O)OC[C@@H](Cc1c[nH]c2ccccc12)NC(=O)[C@H](CC=C)CC(=O)N(CCO)Cc1ccccc1	0.8%	nt	49	nt	0.2	nt	1.6%
COc1cccc(N2CCN(CC(=O)C34CC5CC(CC(C5)C3)C4)CC2)c1	0.3%	11%	-2	2	4.0	1.2	-1.5%
NS(=O)(=O)c1ccc(CCNC(=O)CC(NC(=O)c2ccccc2Cl)c2ccccc2)cc1 (stereo not given)	nt	11%	-10	8	1.0	0.1	1.6%
CCN(C[C@H]1N[C@@](C)(C(=O)OC)[C@H]2C(=O)N(Cc3ccccc3)C(=O)[C@@H]12)C(=O)Nc1ccc(OC)cc1	0.1%	nt	-6	nt	-0.8	nt	2.5%
CC(OC(=O)c1nsc(Cl)c1Cl)C(=O)NCc1ccc2c(c1)OCO2 (stereo not given)	0.2%	?	-1	-9	-0.1	5.9	6.8%[38.3 µM]
Cc1c(NC(=O)C(C)C)cccc1-c1nc2ncccc2o1	3.9%	8%	-7	-6	0.5	-7.0	1.1%
O=C(NCC1CCCO1)c1ccc(S(=O)(=O)Nc2ccc(F)cc2)cc1 (stereo not given)	0.7%	nt	5	9	0.0	nt	-5.5%
Cc1ccccc1NC(=O)CSc1nnc(C)c2ccccc12	nt	-2%	-2	6	-0.7	0.9	1.1%
CC(=O)N(c1ccccc1)c1ccc([N+](=O)[O-])cc1[N+](=O)[O-]	0.1%	7%	1	2	0.9	-2.0	-2.9%
CC1=Nc2ccccc2N=C(NC(=O)CSC(=S)N2CCN(C)CC2)C1c1ccccc1 (stereo not given)	-3.2%	11%	-8	nt	-0.1	2.8	1.3%
COc1ccc(C(=O)N/N=C\c2ccc(OC)c(COc3ccccc3Br)c2)c(OC)c1	-21%	-3%	-10	3	0.4	2.7	4.9%
COc1cc(CNCc2ccco2)ccc1OCc1ccccc1	-1.8%	7%	7	5	0.6	1.5	2.4%[38.3 µM]
Cc1ccccc1C(=O)N1CCC(n2nccc2NC(=O)CCOc2ccccc2)CC1	-3.4%	4%	-9	13	1.8	nt	-1.5%
COc1cc(C2C3=C(CC(C)(C)CC3=O)N(C)C3=C2C(=O)CC(C)(C)C3)ccc1O	nt	?	12	-27	0.6	-5.1	-2.0%
O=C(/C=C/c1ccccc1)NNC(=O)c1cccs1	1.0%	-8%	21	30	-0.7	2.1	-1.3%
COc1ccc2c(c1)[nH]c1c(=O)n(/N=C/c3ccc(OC)c(COc4ccccn4)c3)cnc12	0.3%	8%	19	-7	-0.1	4.2	0.2%
CCOc1ccc(S(=O)(=O)NCc2ccc3c(c2)OCO3)cc1C	-0.3%	10%	6	-13	0.8	-1.0	-0.5%
O=C(CS(=O)(=O)c1ccccc1)Nc1ccc(Br)cn1	-28%	-3%	-2	-31	-0.7	-2.4	1.7%
O=C(CSc1nnnn1-c1cccnc1)Nc1ccccc1F	28µM*	10%	-10	-7	-0.2	2.2	-1.7%
O=C(COc1ccc(Br)cc1CNCCc1ccccc1)NCc1ccccc1	-0.1%	?	14	-13	-0.2	-3.7	-2.0%
Cc1cccc(C(=O)OCC(=O)N2CCCCCC2)c1C	nt	nt	-16	nt	-0.5	nt	5.3%
CCN(CC)S(=O)(=O)c1ccc2oc(SCC3CN=C(c4ccc(OC)cc4)S3)nc2c1 (stereo not given)	-16%	-14%	10	-13	0.4	5.9	-1.3%
CCCCOc1ccc(C(CC(=O)NC)C(=O)O)cc1 (stereo not given)	0.4%	14%	-2	3	-1.2	0.7	-2.8%
O=C(Cc1n[nH]c(=O)[nH]c1=O)N/N=C/c1cccc(Cl)c1	nt	9%	-11	nt	-1.1	6.7	-0.9%
Cc1cccc(CN2[C@H](COCc3ccccc3)C=CS2(=O)=O)c1	0.7%	nt	30	nt	0.7	nt	-0.6%
CN(C)c1ccc(/C=[N+](\[O-])C2SC(=S)N(C)C2(C)C)cc1 (stereo not given)	1.6%	-13%	1	7	0.0	-0.2	-1.7%
Cc1ccc2c(c1)N(CC(=O)Nc1ccccc1F)C(=O)C(C)O2 (stereo not given)	nt	nt	-13	nt	1.0	nt	-1.9%
COc1cccc(-c2ncc3ccccc3c2COC(=O)CCCC(=O)O)c1	0.4%	nt	0	-3	0.6	nt	-0.8%
COc1ccc(OC)c(S(=O)(=O)NCCS(=O)(=O)N2CCN(c3ccccc3)CC2)c1	1.0%&-3.3%	12%	-7&-2	-7	0.9&0.6	3.5	1.7%&1.1%
Going on with the list:
SMILES	ClpP mod	Sfp inh	TRPML1 inh	TRPV1 PAM	TRPML1 agonist	Menin MLL FP FL	PINK1 expr mod
O=C(Nc1ccc(O)c(-c2nc3ccccc3o2)c1)c1sc2ccccc2c1Cl	-2.2%	nt	-3	nt	1.2	nt	2.2%
CCOC(=O)C1(Cc2ccccc2C(F)(F)F)CCN(C2CCSC2)CC1 (stereo not given)	nt	-3%	-5	2	-0.6	-1.9	8.5%
CC1(C)Cc2ccccc2/C(=C/C(=O)c2ccccc2)N1	-0.4%	-26%	53	-7	2.2	-0.4	1.5%
O=C(CCc1c[nH]c2ccccc12)Nc1ccc(S(=O)(=O)Nc2ncccn2)cc1	32µM*	6%	0	-7	-0.3	5.3	1.4%
COc1ccccc1/C=C/c1nc2ccccc2o1	-27%	nt	nt	nt	-0.4	nt	0.7%
